BJeLR viability: kills HRASV12-expressing BJeLR cells | inhibition, % (concentration not given with the values) | 300,000 tested, 0.17% active | BJeLR (HRASV12) viability, CellTiter-Glo ATP luminescence, 48 h; reference of the scale not given here;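 active means replicate mean above 50%; inconclusive means above 50% but judged a plate artefact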;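 further: 50 nL library stock added to about 25 µL; numbers are from one replicate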
Mtb hypoxia rep: reduces hypoxia-regulated biosensor signal in M. tuberculosis; M. tuberculosis hypoxia-regulated fluorescent reporter, fluorescence; fluorescence inhibition, % (no concentration beside the values); 300,000 tested, 0.1% active;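 active means 35 to 45% if threefold the growth effect, above 45% if 1.5-fold the growth effect; inactive means the rest, general growth blockers included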;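 further: wells of about 50 µL received 100 nL stock; 0% = vehicle wells and 100% = reference inhibitor wells; whole bacteria with a GFP reporter of the hypoxia response; strong numbers were not always called active; many hits fall short of the cut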
Bead autofluor: compound fluorescence in toxin protease inhibitor counterscreen; compound autofluorescence counterscreen, microsphere flow cytometry; stronger effect = higher value; fluorescence intensity (concentration not given with the values); 360,000 tested, 3.1% active; AID 624483;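 active means at least 3 SD above the mean of all compounds, about 16000 in these data; inconclusive means too few beads counted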;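 further: 100 nL of 1 mM stock went into each well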
PrP UTR inh: suppresses PrP 5' UTR mRNA reporter expression | cell-based PrP 5' UTR mRNA reporter, plate reader | inhibition, % (concentration not given with the values) | 340,000 tested, 0.35% active | AID 488862;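 active means every replicate at 50% or more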;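 further: 0 = median of the neutral control wells; tested in H4 reporter cells; numbers are from one replicate; inactives centre near -14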
RN4220 kill: kills Staphylococcus aureus RN4220 | S. aureus RN4220 growth, OD600, 16 h | 330,000 tested, 0.33% active | inhibition, % (test concentration not listed);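 active means z-score of -3 or lower and OD600 up to 0.18 on both plates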;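 further: plate controls were untreated cells for no effect and reference antibiotic for full effect; stock transfer was 100 nL into about 80 µL; one replicate is shown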
ugtP null kill: kills S. aureus RN4220 lacking UgtP; AID 1259309; 330,000 tested, 0.54% active; growth inhibition, % (test concentration not listed); S. aureus RN4220 ugtP deletion, OD600 growth, 16 h; some inactives read as strong as hits;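 active means z-score under -3 and OD600 up to 0.15 on both plates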;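 further: plate controls were untreated wells for no effect and antibiotic for full effect; wells of about 80 µL received 100 nL stock; the first replicate is given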
Mtb hypoxia rep growth: further read-out of Mtb hypoxia rep, marked with its call; growth inhibition, %; measured here: M. tuberculosis growth (absorbance);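 0% = vehicle and 100% = reference antibiotic; read after six days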
* hit, by the source's call; ? = inconclusive; nt = not tested or not shown. An unsorted share of the library, and some 4% of all compounds hit somewhere here.

SMILES	BJeLR viability	Mtb hypoxia rep	Mtb hypoxia rep growth	Bead autofluor	PrP UTR inh	RN4220 kill	ugtP null kill
C=C(C)CNC(=S)NN=C(C)c1ccc(-n2ccnc2)cc1	nt	8.6	3.4	nt	nt	7.4	9.4
COc1ccc(COc2ccc(S(=O)(=O)N3CCCC3)cc2C(N)=O)cc1F	-2.7	nt	nt	3956	-18.6	nt	nt
CCOC(=O)c1c(C)n(C)c2ccc(OC)c(NC(=O)CN3CCSCC3)c12	-13.6	3.3	-2.9	3703	-9.5	5.7	-2.8
C=CCNC(=O)C(=O)c1cccn1-c1ccsc1C(=O)OC	-3.9	nt	nt	3985	-18.8	2.4	5.3
O=C1NC(=O)N(c2ccccc2)C(=O)/C1=C/c1ccc(Sc2ccccc2)o1	-8.7	7.6	9.0	10901	-14.1	5.9	10.0
COC(=O)c1ccc(COc2ccc(C)cc2[N+](=O)[O-])o1	2.4	3.8	10.0	6058	-59.4	4.1	5.5
CCCCNC(=O)C1c2ccccc2C(=O)N(c2ccc(OC)cc2)C1c1ccc(OC)cc1 (centres undefined)	0.1	20.4	10.1	3072	-11.9	-0.2	8.4
COc1cccc(N2CCN(C(C)C(=O)NC34CC5CC(CC(C5)C3)C4)CC2)c1 (centres undefined)	3.0	0.3	3.1	3699	-20.5	5.8	4.4
CCOC(=O)c1c(C)[nH]c(C)c1S(=O)(=O)NCC1CCN(Cc2cccc(F)c2)CC1	-0.6	-6.8	-6.9	5874	-15.0	1.4	5.5
Cc1ccccc1NC(=O)C1c2cccc[n+]2CC(=O)N1Cc1ccc2c(c1)OCO2 (centres undefined)	-2.8	5.1	-6.9	4154	-14.3	5.8	2.6
O=C(Cc1ccccc1)NCc1cccnc1	-5.9	4.6	15.1	4536	-14.3	1.9	0.8
CC1=NN(c2ccc(C(=O)O)cc2)C(=O)/C1=C\c1ccc(OC(=O)c2cccs2)cc1	nt	0.2	11.3	4122	-39.9	12.1	12.9
CCOC(=O)N1CCN(C(=O)c2cnc(Nc3ccccc3OC)c3ccccc23)CC1	nt	-3.3	6.9	8297	-27.1	-0.1	-6.0
CCCN1CCN(CCCNC(=O)c2ccccc2NC(=O)C2=C(C)OCCS2)CC1	1.7	-7.0	2.0	3995	-5.1	2.5	2.7
Cc1cc(C(F)(F)F)nc(-n2cc(-c3ccccc3)nn2)n1	-2.8	17.5	4.8	3336	-15.1	2.3	0.2
O=C(Cc1ccccc1)NN1C(=O)C2C3C=CC([C@@H]2C1=O)C31CC1 (some centres undefined)	-1.2	0.2	10.9	2334	-0.5	16.2	1.0
CC(/C=N/NC(=O)CSc1n[nH]c(=O)[nH]c1=O)=C\c1ccccc1	-7.6	nt	nt	3512	8.2	nt	nt
O=C(CN1CSCC1=O)N1CCN(S(=O)(=O)c2ccc(Cl)cc2)CC1	nt	1.6	5.1	4340	-7.9	1.1	1.0
CS(=O)(=O)N(CC(=O)N1CCCCCC1)c1ccc(Br)cc1	1.0	4.0	9.0	9529	-17.5	4.6	3.4
Cc1ccc(CNC(=O)c2ccc3c(=O)[nH]c4c(C(=O)NCC5CCCO5)sc(=S)n4c3c2)cc1 (centres undefined)	3.7	-8.2	11.6	3984	-5.3	0.1	5.1
Cc1nn(C)c(C)c1CNC(=O)c1cnn2c1NC(c1ccccc1)CC2C(F)(F)F (centres undefined)	-4.2	12.3	6.5	6119	-17.6	5.1	14.8
CCCCN(CCCC)C(=O)c1sc2nc(N3CCOCC3)c3c(c2c1N)CCCC3	4.9	2.1	-6.0	nt	nt	-1.8	2.8
COc1cc(/C=C/C(=O)OCC(=O)NCc2cccs2)ccc1OCC#N	-0.5	2.3	0.1	2627	-149.3	7.4	6.2
CCN(CC)CCCCCOc1ccccc1OC	-5.5	6.1	3.7	11121	-3.0	1.7	6.8
COc1ccc(C2C=C(c3ccccc3)Nc3nnnn32)cc1 (centres undefined)	12.9	19.5	15.0	6989	-183.3	11.3	1.5
SMILES	BJeLR viability	Mtb hypoxia rep	Mtb hypoxia rep growth	Bead autofluor	PrP UTR inh	RN4220 kill	ugtP null kill
C=CCn1c(=O)/c(=C/c2ccsc2)s/c1=C(\C#N)C(=O)NCCN1CCOCC1	nt	5.7	5.2	3951	-27.8	2.9	1.2
COc1ccc(NCCC#N)cc1	-2.0	-1.4	-3.0	9734	0.2	3.1	0.2
Cc1cc(NC(=O)CCC(=O)N(CC(=O)NCC2CCCO2)Cc2ccc(F)cc2)no1 (centres undefined)	8.0	8.6	-6.9	4469	-16.6	0.5	8.7
CCC(=Nc1ccccc1OC)C1=C(O)CC(c2ccccc2)CC1=O (centres undefined)	22.4	0.0	3.5	4599	-24.7	0.5	-4.8
COc1ccc(NC(=O)Nc2cccc3cccnc23)cc1	6.0	-0.8	3.2	4347	-90.0	-2.5	-5.4
CNC(=O)CN(c1cc([N+](=O)[O-])ccc1OC)S(C)(=O)=O	2.1	9.9	4.5	1956	-1.4	3.9	12.3
CC1NC(=O)C(CCC(N)=O)NC(=O)c2cc([N+](=O)[O-])cc(I)c2NCCC(C(N)=O)NC1=O (centres undefined)	nt	8.2	11.6	nt	nt	3.6	4.2
COc1ccc(-c2nc3c(-c4ccc(Cl)cc4)cnn3cc2C)cc1F	10.0	5.8	11.3	4030	6.4	-1.0	-5.3
CCOC(=O)C(C)(CC)NC(=O)CSP(=S)(OCC)OCC (centres undefined)	-11.1	4.1	1.0	8192	4.1	6.4	0.9
CC(C)(C)NC(=O)C(c1ccncc1)N(Cc1cccs1)C(=O)Cn1nnc(-c2cccs2)n1 (centres undefined)	8.3	17.4	5.6	6644	-33.3	3.9	7.4
Cc1cc(Nc2c(C)n(C)n(-c3ccccc3)c2=O)c2ccccc2n1	0.0	2.0	-2.1	1900	-14.6	0.4	-0.5
O=C(CCn1cnc2ccccc21)NN=C/C=C/c1ccccc1	nt	0.4	4.5	nt	nt	-0.8	-2.7
COc1ccc(OC)c(/C=C2\SC(N3CCCC(C)C3)=NC2=O)c1 (centres undefined)	13.0	6.6	-1.1	3660	-6.5	6.5	7.5
O=C(NNC(=S)Nc1ccccc1)C1CCCCC1	13.8	9.1	15.5	3794	-26.9	1.5	11.0
COc1ccc(C(=O)C2CCCN(Cc3ccc(C#CCCO)cc3)C2)cc1F (centres undefined)	4.2	-1.4	0.0	5377	-33.3	-3.1	-5.8
C/C(=N\NC(=O)C1(C)CC1(Br)Br)c1ccc([N+](=O)[O-])cc1 (centres undefined)	4.8	nt	nt	1976	-7.3	nt	nt
O=C(CSc1nccc(=O)[nH]1)Nc1ccc(F)c([N+](=O)[O-])c1	-4.6	8.9	5.8	2671	-21.6	6.1	5.1
CC(N)=Nc1ccc([N+](=O)[O-])cc1	3.0	-15.5	-3.9	2623	-22.8	1.5	2.5
Cc1ccc(CN2C3CCCC2CC(NC(=O)Nc2cccc(F)c2)C3)cc1 (centres undefined)	2.6	2.7	0.2	4443	-8.8	0.6	0.0
Cc1ccc(NC(=O)Cn2c(=O)n(CCC(=O)NC3CCN(Cc4ccccc4)CC3)c(=O)c3ccccc32)cc1	0.8	12.0	10.3	5506	-3.9	5.0	-2.6
O=C(Cc1ccccc1)Nc1cccnc1	-4.9	-5.9	2.5	1957	-5.2	-2.9	-0.7
CCOc1ccc(S(=O)(=O)Nc2cccc(C(=O)NCCCN3CCOCC3)c2)cc1	nt	4.9	-5.0	3227	-9.1	3.9	4.1
CCCC(=O)OCC(=O)Nc1ccc([N+](=O)[O-])cc1C#N	2.3	11.9	6.6	3875	-8.9	-1.3	7.3
COc1ccccc1NS(=O)(=O)c1cccc(C(=O)NN=C(C)c2ccc(-n3ccnc3)cc2)c1	nt	-0.2	8.6	nt	nt	-1.0	2.8
Cc1cc(C)n(CNc2nc(C(F)(F)F)cs2)n1	2.2	4.8	11.3	3308	-10.1	-17.0	-18.2
SMILES	BJeLR viability	Mtb hypoxia rep	Mtb hypoxia rep growth	Bead autofluor	PrP UTR inh	RN4220 kill	ugtP null kill
O=C(COC(=O)c1ccc(Br)cc1)Nc1cccnc1Cl	nt	24.6	49.0	8453	-49.9	3.5	-1.8
CCOC(=O)/C(C#N)=C\c1ccc(OCC(=O)Nc2ccc(C)cc2C)c(OC)c1	5.9	-0.2	-4.4	3284	-22.1	2.3	-0.3
Cc1cc(NC(=O)Nc2cccs2)no1	-4.3	24.3	9.9	2783	3.1	-14.5	-1.1
O=C1C(=O)N(c2nccs2)C(c2ccccc2F)/C1=C(\O)c1ccc2c(c1)OCCO2 (centres undefined)	-21.6	11.0	5.7	5585	-5.4	1.0	0.9
NS(=O)(=O)c1ccc(-c2ccc(C=C3C(=O)c4ccccc4C3=O)o2)cc1	1.5	-4.5	0.8	4833	-3.7	1.9	-2.5
COc1ccc(NC(=O)CC2C(=O)N(C)C(=S)N2Cc2ccc3c(c2)OCO3)cc1 (centres undefined)	3.8	0.7	7.0	2021	5.0	9.4	0.9
O=C(NC1CCN(S(=O)(=O)c2ccc(Cl)c(F)c2)CC1)c1cccnc1	-3.3	7.8	7.6	3859	-7.7	0.6	9.6
NC(=O)C1CCN(C(=O)c2ccc3nc(N4CCCCC4)sc3c2)CC1	-0.6	-0.6	4.8	5747	-35.1	2.2	10.6
COc1cc(/C=C/C(=O)Nc2cc(S(=O)(=O)N3CCOCC3)ccc2N2CCCC2)cc(OC)c1OC	-0.2	-0.2	-13.3	4452	-2.6	-0.8	0.4
Cn1cc(-c2nnnn2-c2ccc(Cl)cc2)c(C(F)(F)F)n1	3.5	5.2	6.2	23367*	-10.6	2.5	5.5
CCN(CC)CCCNc1nc(-n2nc(C)cc2C)nc2sc3c(c12)CC(C)(C)OC3	-11.1	-0.4	-1.2	4680	-11.6	0.6	1.2
COc1cccc(OC)c1C(=O)O/N=C(\N)c1ccncc1	-2.4	8.1	0.5	6561	-31.6	4.2	1.4
COc1cc(OC)cc(C(=O)N[C@H](C(=O)Nc2c(C)n(C)n(-c3ccccc3)c2=O)C(C)C)c1	nt	3.6	6.7	5543	-38.5	3.7	9.9
CCOc1ccc(C(=O)OCc2nnc(-c3cccs3)o2)cc1OC	9.5	1.6	-3.7	14958	8.0	8.2	13.1
CCN(CC)S(=O)(=O)c1ccc(N2CCOCC2)c(NC(=O)CN2C(=O)NC(C)(c3ccccc3)C2=O)c1 (centres undefined)	0.5	6.7	13.8	nt	-9.0	2.5	5.9
C=CCn1c(=NC(=O)c2cc(Cl)sc2Cl)sc2cc(S(N)(=O)=O)ccc21	-31.3	nt	nt	11377	-1.8	nt	nt
COc1ccc(C(NC(C)=O)c2cc(Cl)c3cccnc3c2O)cc1 (centres undefined)	21.7	4.5	-6.4	3969	-3.4	4.8	-3.3
CC(C)[C@H](NC(=O)c1ccccc1Br)C(=O)OCc1nc2ccsc2c(=O)[nH]1	-7.6	9.2	6.9	?	-9.6	5.7	12.5
S=c1[nH]nc(COc2ccccc2)n1N=Cc1ccc(Br)s1	nt	3.9	11.6	nt	nt	18.9	-26.8
Cc1cc(S(=O)(=O)N2CCC3(CC2)OCCN3S(=O)(=O)c2cccs2)ccc1F	8.4	-9.9	2.0	5532	-17.0	2.8	5.1

Compound profiles (already shown). Order of values: BJeLR viability | Mtb hypoxia rep | Mtb hypoxia rep growth | Bead autofluor | PrP UTR inh | RN4220 kill | ugtP null kill
Record of CCOC(=O)C(C)(CC)NC(=O)CSP(=S)(OCC)OCC (centres undefined) : -11.1 | 4.1 | 1.0 | 8192 | 4.1 | 6.4 | 0.9
Record of Cc1ccccc1NC(=O)C1c2cccc[n+]2CC(=O)N1Cc1ccc2c(c1)OCO2 (centres undefined) : -2.8 | 5.1 | -6.9 | 4154 | -14.3 | 5.8 | 2.6
Record of CC(/C=N/NC(=O)CSc1n[nH]c(=O)[nH]c1=O)=C\c1ccccc1 : -7.6 | nt | nt | 3512 | 8.2 | nt | nt
Record of O=C(CCn1cnc2ccccc21)NN=C/C=C/c1ccccc1 : nt | 0.4 | 4.5 | nt | nt | -0.8 | -2.7

Looked up by compound from the list above, 2 records:
SMILES	BJeLR viability	Mtb hypoxia rep	Mtb hypoxia rep growth	Bead autofluor	PrP UTR inh	RN4220 kill	ugtP null kill
CCN(CC)CCCNc1nc(-n2nc(C)cc2C)nc2sc3c(c12)CC(C)(C)OC3	-11.1	-0.4	-1.2	4680	-11.6	0.6	1.2
O=C(NNC(=S)Nc1ccccc1)C1CCCCC1	13.8	9.1	15.5	3794	-26.9	1.5	11.0

Bioassay records (PubChem BioAssay)
